Env fusion inh: inhibitors of HIV-1 Env-driven cell-cell fusion, primary screen, HeLa-JRFL effector, CEM21 target cells, luciferase. inhibition, % at 12.3 µM. actives 1.1% (n = 360,000). AID 651610, 2012;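 active means mean replicate inhibition score of at least 50 and every replicate individually at or above 50; inconclusive means only one of the two criteria met; inactive means mean below 50 and not all replicates reaching 50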;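 further: 0% = plate neutral controls and 100% = maraviroc near 300 nM; one replicate is shown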
Yeast UUG start: modulators of yeast start codon fidelity, primary screen, whole organism, S. cerevisiae, single point, plate reader. S. cerevisiae UUG-firefly luciferase reporter, luminescence/redox ratio. activity score, % at 18.7 µM. actives 0.13% (n = 350,000);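 active means replicate mean at a twofold rise or more, about +100% in these data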;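 further: firefly luciferase made from a UUG start codon reports start codon fidelity; reporter light over untreated wells divided by growth signal over untreated wells; some hits fall short of that in this replicate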
Numbers without * were called inactive; ? = inconclusive; [ ] = another dose, or the depositor's remark.

compound,Env fusion inh,Yeast UUG start
Cc1noc(C)c1NC(=O)N(C)C[C@H]1Oc2ccc(NC(=O)c3ccncc3)cc2CC(=O)N([C@H](C)CO)C[C@H]1C,-6[16.7 µM],-10
C[C@@H]1CN([C@H](C)CO)S(=O)(=O)c2ccc(C#CC3CCCC3)cc2O[C@H]1CN(C)C(=O)C1CC1,29[16.7 µM],6
O=C(C[C@@H]1C[C@H]2c3cc(NC(=O)NC4CCCC4)ccc3O[C@H]2[C@H](CO)O1)NCC1CC1,?,4
C[C@@H]1CN([C@@H](C)CO)C(=O)c2cc(-c3cccc(C#N)c3)cnc2O[C@@H]1CN(C)Cc1ccc(F)cc1,7[16.7 µM],-1
C[C@H]1CN([C@@H](C)CO)C(=O)c2cccc(NC(=O)Nc3ccc(F)cc3)c2O[C@H]1CN(C)C(=O)Nc1ccc2c(c1)OCO2,32[16.7 µM],8
COc1ccc(NC(=O)Nc2ccc3c(c2)C(=O)N([C@H](C)CO)C[C@@H](C)[C@H](CN(C)C)OCCCC[C@@H](C)O3)cc1,16[16.7 µM],6
C[C@H](O)C#Cc1cnc2c(c1)C(=O)N([C@@H](C)CO)C[C@@H](C)[C@@H](CN(C)C(=O)CC1CC1)O2,-6[16.7 µM],-11
C[C@H]1CN([C@@H](C)CO)C(=O)Cc2cc(NC(=O)Nc3ccc(C(F)(F)F)cc3)ccc2O[C@@H]1CN(C)Cc1ccc(Oc2ccccc2)cc1,9[16.7 µM],-4
CNC[C@H]1OCCCC[C@@H](C)Oc2ccc(NC(=O)Nc3ccccc3)cc2C(=O)N([C@@H](C)CO)C[C@H]1C,-8[16.7 µM],13
CCCC#Cc1cnc2c(c1)C(=O)N([C@@H](C)CO)C[C@H](C)[C@H](CN(C)C(=O)Cc1cccnc1)O2,6[16.7 µM],-6
C[C@@H]1CN([C@@H](C)CO)C(=O)c2cc(-c3ccccc3F)cnc2O[C@@H]1CN(C)Cc1cccc(F)c1,6[16.7 µM],3
C[C@@H]1CN([C@@H](C)CO)C(=O)Cc2cc(NC(=O)Cc3cn(C)c4ccccc34)ccc2O[C@H]1CN(C)S(=O)(=O)c1cccs1,-5[16.7 µM],-16
C/C=C/c1ccc2c(c1)O[C@H](CN(C)Cc1cccnc1)[C@H](C)CN([C@H](C)CO)S2(=O)=O,-114[16.7 µM],5
COc1ccc(S(=O)(=O)Nc2ccc3c(c2)C(=O)N([C@H](C)CO)C[C@H](C)[C@H](CN(C)C(=O)Nc2c(C)noc2C)OCCCC[C@H](C)O3)cc1,-2[16.7 µM],4
C[C@@H]1CN([C@@H](C)CO)C(=O)c2cccc(N(C)C)c2O[C@H]1CN(C)C(=O)Nc1ccc2c(c1)OCO2,4[16.7 µM],8
C[C@@H]1CN([C@H](C)CO)C(=O)c2cc(NC(=O)CCC(F)(F)F)ccc2O[C@@H](C)CCCCO[C@H]1CN(C)Cc1ccc(C(F)(F)F)cc1,14[16.7 µM],-15
CCCC#Cc1cnc2c(c1)C(=O)N([C@H](C)CO)C[C@H](C)[C@@H](CN(C)C(=O)Nc1cccc(F)c1)O2,3[16.7 µM],11
CCNC(=O)C[C@@H]1CC[C@H]2[C@@H](COc3ccc(NC(=O)Cc4cccs4)cc3C(=O)N2C)O1,-15[16.7 µM],-24
C[C@H]1CN([C@@H](C)CO)C(=O)c2cc(C#CCN(C)C)cnc2O[C@@H]1CN(C)C(=O)CN1CCOCC1,8[16.7 µM],-5
C[C@@H]1CN([C@@H](C)CO)C(=O)c2cc(C#Cc3ccncc3)cnc2O[C@H]1CN(C)C(=O)c1ccccc1F,8[16.7 µM],-4
C[C@H]1CN([C@@H](C)CO)C(=O)c2cccc(NS(=O)(=O)c3cn(C)cn3)c2O[C@@H]1CN(C)S(=O)(=O)c1cn(C)cn1,-2[16.7 µM],-7
C[C@H](CO)N1C[C@H](C)[C@@H](CN(C)C)Oc2ncc(-c3cccc(C(=O)N(C)C)c3)cc2C1=O,-9[16.7 µM],-14
C[C@H](CO)N1C[C@H](C)[C@@H](CN(C)C(=O)c2ccncc2)OCCCC[C@H](C)Oc2ccc(NS(=O)(=O)c3cn(C)cn3)cc2C1=O,-13[16.7 µM],2
C[C@H](O)C#Cc1cnc2c(c1)C(=O)N([C@H](C)CO)C[C@H](C)[C@@H](CN(C)C(=O)CN1CCOCC1)O2,-6[16.7 µM],5
C[C@H]1CN([C@@H](C)CO)C(=O)c2cc(NS(=O)(=O)c3ccc(F)cc3)ccc2O[C@@H]1CN(C)S(=O)(=O)c1ccc(F)cc1,-96[16.7 µM],-2
C[C@@H]1CN([C@H](C)CO)C(=O)c2cccc(NS(=O)(=O)c3ccccc3)c2O[C@H]1CN(C)Cc1ccc(C(=O)O)cc1,-18[16.7 µM],-23
COc1cccc(-c2ccc3c(c2)O[C@H](CN(C)Cc2cncnc2)[C@H](C)CN([C@H](C)CO)S3(=O)=O)c1,-11[16.7 µM],-1
COCC(=O)N(C)C[C@@H]1Oc2ncc(C#CC3(O)CCCC3)cc2C(=O)N([C@H](C)CO)C[C@@H]1C,8[16.7 µM],-8
CO[C@H]1CN(C)C(=O)c2ccc(NC(=O)C3CCCCC3)cc2OC[C@@H](C)N(C(=O)c2ccccc2)C[C@H]1C,-22[16.7 µM],12
Cc1noc(C)c1S(=O)(=O)Nc1ccc2c(c1)C(=O)N([C@H](C)CO)C[C@H](C)[C@H](CN(C)S(C)(=O)=O)OCCCC[C@H](C)O2,6[16.7 µM],-13
C[C@H](O)C#Cc1cnc2c(c1)C(=O)N([C@@H](C)CO)C[C@H](C)[C@@H](CN(C)Cc1ccccn1)O2,-18[16.7 µM],-10
C[C@H]1CN([C@@H](C)CO)C(=O)c2cc(/C=C/c3ccccc3)cnc2O[C@@H]1CN(C)S(=O)(=O)c1ccc(F)cc1,17[16.7 µM],-11
C[C@@H]1CN([C@H](C)CO)C(=O)c2cc(NC(=O)CCC(F)(F)F)ccc2O[C@@H](C)CCCCO[C@H]1CN(C)C(=O)Nc1ccc2c(c1)OCO2,-11[16.7 µM],5
CN1C(=O)c2cc(NC(=O)Cc3cccs3)ccc2OC[C@H]2O[C@@H](CC(=O)NCC3CC3)CC[C@H]21,14[16.7 µM],6
C[C@H]1CN([C@@H](C)CO)C(=O)c2cccc(NC(=O)C3CC3)c2O[C@H]1CN(C)C,-10[16.7 µM],-7
O=C(C[C@H]1CC[C@@H](NC(=O)Nc2ccc(F)cc2)[C@H](CO)O1)NCCN1CCCC1,-9[16.7 µM],-22
CCC(=O)Nc1ccc2c(c1)C(=O)N(C)C[C@H](OC)[C@H](C)CN(Cc1ccccn1)[C@H](C)CO2,-3[16.7 µM],-1
CCC(=O)N1C[C@@H](C)[C@H](OC)CN(C)C(=O)c2cc(NC(=O)c3ccc(F)cc3)ccc2OC[C@@H]1C,7[16.7 µM],5
C[C@@H]1CN([C@@H](C)CO)C(=O)c2cc(NS(=O)(=O)c3cccs3)ccc2O[C@@H](C)CCCCO[C@@H]1CN(C)CC1CCCCC1,-35[16.7 µM],22
C[C@H]1CN([C@@H](C)CO)C(=O)c2cc(C#Cc3cccc(F)c3)cnc2O[C@@H]1CN(C)C(=O)C1CCC1,-39[16.7 µM],5
CC(C)CC#Cc1ccc2c(c1)O[C@H](CN(C)S(C)(=O)=O)[C@@H](C)CN([C@H](C)CO)S2(=O)=O,13[16.7 µM],-2
C[C@H](CO)N1C[C@H](C)[C@@H](CN(C)Cc2ccc(Cl)c(Cl)c2)Oc2ccc(NC(=O)Nc3cccc4ccccc34)cc2C1=O,14[16.7 µM],-5
C[C@@H]1CN([C@H](C)CO)C(=O)c2cc(/C=C/c3ccccc3)cnc2O[C@H]1CN(C)C(=O)CN1CCOCC1,-14[16.7 µM],-7
C[C@@H]1CN([C@H](C)CO)C(=O)Cc2cc(NC(=O)C3CCCCC3)ccc2O[C@H]1CN(C)S(=O)(=O)c1cccs1,15[16.7 µM],7
C[C@@H]1CN([C@@H](C)CO)S(=O)(=O)c2ccc(C3=CCCC3)cc2O[C@@H]1CN(C)C,15[16.7 µM],3
CC(C)NC(=O)Nc1ccc2c(c1)C(=O)N([C@H](C)CO)C[C@@H](C)[C@H](CN(C)S(C)(=O)=O)OCCCC[C@H](C)O2,6[16.7 µM],3
C[C@H](CO)N1C[C@H](C)[C@H](CN(C)C(=O)Nc2ccc(C(F)(F)F)cc2)Oc2ccc(NC(=O)Nc3ccc(F)cc3)cc2C1=O,23[16.7 µM],-14
C[C@@H]1CN([C@H](C)CO)C(=O)c2cc(NC(=O)c3ccncc3)ccc2O[C@H]1CN(C)CC1CCCCC1,-3[16.7 µM],-3
CO[C@@H]1CN(C)C(=O)c2cc(NS(C)(=O)=O)ccc2OC[C@@H](C)N(CC2CCOCC2)C[C@H]1C,4[16.7 µM],-4
C[C@H]1CN([C@@H](C)CO)C(=O)CCCn2cc(nn2)CO[C@H]1CN(C)S(=O)(=O)c1ccc(F)cc1,27[16.7 µM],1
C[C@H]1CN([C@@H](C)CO)S(=O)(=O)c2ccc(C#CC3CC3)cc2O[C@@H]1CN(C)C(=O)CC1CC1,-17[16.7 µM],7
C[C@H]1CN([C@@H](C)CO)C(=O)Cc2cc(NC(=O)Cc3ccccc3)ccc2O[C@H]1CN(C)C(=O)Nc1ccc(C(F)(F)F)cc1,-10[16.7 µM],6
C[C@@H]1CCCCO[C@H](CN(C)C(=O)Cc2ccccc2)[C@@H](C)CN([C@H](C)CO)C(=O)c2cc(NC(=O)c3ccccc3)ccc2O1,-48[16.7 µM],-7
COc1ccc(S(=O)(=O)N(C)C[C@@H]2OCCCC[C@H](C)Oc3ccc(NC(=O)CCC(F)(F)F)cc3C(=O)N([C@@H](C)CO)C[C@H]2C)cc1,-16[16.7 µM],13
Cc1noc(C)c1NC(=O)N(C)C[C@@H]1OCCCC[C@@H](C)Oc2ccc(NC(=O)Cc3ccccc3)cc2C(=O)N([C@H](C)CO)C[C@H]1C,-12[16.7 µM],-6
C[C@@H]1CN([C@H](C)CO)S(=O)(=O)c2ccc(C#CCN(C)C)cc2O[C@H]1CN(C)Cc1ccc2c(c1)OCO2,-3[16.7 µM],12
Cc1ccc(S(=O)(=O)N(C)C[C@@H]2OCCCC[C@@H](C)Oc3ccc(NC(=O)Nc4ccccc4)cc3C(=O)N([C@H](C)CO)C[C@H]2C)cc1,2[16.7 µM],-13
COc1cccc(NC(=O)N[C@H]2C=C[C@H](CC(=O)Nc3ccccc3)O[C@@H]2CO)c1,13[16.7 µM],4
C[C@@H]1CN([C@H](C)CO)C(=O)Cc2cc(NC(=O)C3CC3)ccc2O[C@@H]1CN(C)CC1CCCCC1,-11[16.7 µM],-13
Cc1noc(C)c1S(=O)(=O)N(C)C[C@@H]1Oc2ccc(NS(=O)(=O)c3ccc(Cl)cc3)cc2C(=O)N([C@@H](C)CO)C[C@@H]1C,-8[16.7 µM],3

Continued.
compound,Env fusion inh,Yeast UUG start
C[C@@H]1CN([C@H](C)CO)C(=O)Cc2cc(NC(=O)Nc3cccc4ccccc34)ccc2O[C@H]1CN(C)C(=O)Nc1cccc2ccccc12,-32[16.7 µM],-5
CC(C)NC(=O)Nc1ccc2c(c1)CC(=O)N([C@@H](C)CO)C[C@@H](C)[C@H](CN(C)CC1CCCCC1)O2,-4[16.7 µM],-8
C[C@H]1CN([C@@H](C)CO)C(=O)Cc2cc(N(C)C)ccc2O[C@H]1CN(C)S(C)(=O)=O,-13[16.7 µM],-7
C[C@H](CO)N1C[C@H](C)[C@@H](CN(C)C(=O)Nc2ccccc2)Oc2cc(C#Cc3ccccc3)ccc2S1(=O)=O,17[16.7 µM],4

9 successive compounds already listed, for reference:
compound,Env fusion inh,Yeast UUG start
C[C@@H]1CCCCO[C@H](CN(C)C(=O)Cc2ccccc2)[C@@H](C)CN([C@H](C)CO)C(=O)c2cc(NC(=O)c3ccccc3)ccc2O1,-48[16.7 µM],-7
COc1ccc(S(=O)(=O)N(C)C[C@@H]2OCCCC[C@H](C)Oc3ccc(NC(=O)CCC(F)(F)F)cc3C(=O)N([C@@H](C)CO)C[C@H]2C)cc1,-16[16.7 µM],13
Cc1noc(C)c1NC(=O)N(C)C[C@@H]1OCCCC[C@@H](C)Oc2ccc(NC(=O)Cc3ccccc3)cc2C(=O)N([C@H](C)CO)C[C@H]1C,-12[16.7 µM],-6
C[C@@H]1CN([C@H](C)CO)S(=O)(=O)c2ccc(C#CCN(C)C)cc2O[C@H]1CN(C)Cc1ccc2c(c1)OCO2,-3[16.7 µM],12
Cc1ccc(S(=O)(=O)N(C)C[C@@H]2OCCCC[C@@H](C)Oc3ccc(NC(=O)Nc4ccccc4)cc3C(=O)N([C@H](C)CO)C[C@H]2C)cc1,2[16.7 µM],-13
COc1cccc(NC(=O)N[C@H]2C=C[C@H](CC(=O)Nc3ccccc3)O[C@@H]2CO)c1,13[16.7 µM],4
C[C@@H]1CN([C@H](C)CO)C(=O)Cc2cc(NC(=O)C3CC3)ccc2O[C@@H]1CN(C)CC1CCCCC1,-11[16.7 µM],-13
Cc1noc(C)c1S(=O)(=O)N(C)C[C@@H]1Oc2ccc(NS(=O)(=O)c3ccc(Cl)cc3)cc2C(=O)N([C@@H](C)CO)C[C@@H]1C,-8[16.7 µM],3
C[C@@H]1CN([C@H](C)CO)C(=O)Cc2cc(NC(=O)Nc3cccc4ccccc34)ccc2O[C@H]1CN(C)C(=O)Nc1cccc2ccccc12,-32[16.7 µM],-5

Screens: PubChem, Broad Institute

An excerpt, so the mix of outcomes need not match the whole.
